Bioassay records as filed in PubChem.
SARS PLpro yeast: SARS-CoV PLP inhibition in yeast; S. cerevisiae expressing SARS-CoV PLpro, growth rescue; control for the full effect not named in the record; Potency, µM (series often up to 32.9 µM), for the others: at the top dose activity, positive = growth rescue; hit rate 0.19% among 330,000; active means well fitted rising curve with a large enough effect; inconclusive means small, poorly fitted or top-dose-only effect; inactive means no such curve, though single readings can be large or run the other way; also: 0% is about no effect; nearly all actives have a fitted effect of over 55% in size; growth read by luminescence after 48 h
LASV entry inh: Lassa virus entry inhibition | Lassa virus pseudotype entry inhibition, cell reporter; control for the full effect not named in the record | Potency, µM (highest dose often 37.9 µM), without a hit: top-dose activity change, negative = inhibition, hits mostly inhibitors | hit rate 1.2% among 300,000 | AID 540256; active means well fitted inhibition curve with a large enough effect; inconclusive means small, poorly fitted or top-dose-only effect, or effect the other way; inactive means flat fitted curve, though single readings scatter; tested in HEK293 cells; also: % is scaled to controls: 0 for no effect and ±100 for the full control effect; nearly all actives have a fitted effect of over 50% in size; luciferase read-out
MARV entry inh: blocks Marburg virus binding to or entry into cells. hit rate 1.8% among 300,000. Potency, µM (highest dose often 37.8 µM), inactives show at the highest dose activity change, negative = inhibition, usual class: inhibitors. Marburg virus pseudotyped entry inhibition, cell reporter; control for the full effect not named in the record; about a third of the inactives were read at about 46 µM; active = well fitted inhibition curve with a large enough effect; inconclusive = small, poorly fitted or top-dose-only effect, or effect the other way; inactive = flat fitted curve, though single readings scatter; tested in HEK293 cells; about a fifth of its hits are not listed in these tables; also: % is scaled to controls: 0 for no effect and ±100 for the full control effect; luciferase read-out
StopGo reporter: FMDV 2A StopGo reporter, luciferase signal | hit rate 1.2% among 410,000 | Potency, µM (titrated, usually from 57.9 µM), for inactives: top-dose signal change, negative = less light | human cells with a luciferase reporter of 2A StopGo recoding; control for the full effect not named in the record; active = well fitted falling curve with a large enough effect; inconclusive = small, poorly fitted or top-dose-only effect; inactive = no such curve, though single readings can be large or run the other way; tested in HEK293T cells; also: % is scaled to controls: 0 for no effect and ±100 for the full control effect; nearly all actives have a fitted effect of over 45% in size; luciferase light after 4 h
Cruzain noTriton: cruzain (T. cruzi) inhibition without detergent; Potency, µM, for inactives: max response, negative = inhibition, actives largely listed as inhibitors; hit rate 2.3% among 200,000; purified cruzain, Z-FR-AMC fluorescence, no detergent; AID 1476;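 also: plate controls were enzyme without inhibitor for no effect and buffer without enzyme for full effect; nearly all actives have a fitted effect of over 40% in size; top concentration of the series not given in the record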
Target sequence (P25779 123-467 limits assumed): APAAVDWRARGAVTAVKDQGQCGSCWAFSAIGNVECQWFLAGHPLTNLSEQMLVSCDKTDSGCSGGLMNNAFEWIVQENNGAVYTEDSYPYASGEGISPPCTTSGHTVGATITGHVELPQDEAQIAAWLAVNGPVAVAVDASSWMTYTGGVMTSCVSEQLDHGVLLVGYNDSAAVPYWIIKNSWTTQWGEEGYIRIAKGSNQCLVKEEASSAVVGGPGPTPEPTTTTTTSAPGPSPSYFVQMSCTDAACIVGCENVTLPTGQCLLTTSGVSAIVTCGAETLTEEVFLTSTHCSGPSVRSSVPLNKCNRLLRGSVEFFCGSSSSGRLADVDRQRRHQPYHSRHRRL
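Purified cruzain at 1.5 nM, pre-incubated 15 min with compound at room temperature in 100 mM sodium acetate pH 5.5, 5 mM DTT, 0.00005% Triton X-100. Reaction started with 2 uM Z-FR-AMC; AMC fluorescence increase over 60 s gives rate.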
Cruzain Triton: blocks cruzain activity in presence of Triton detergent. P25779. hit rate 0.43% among 200,000. purified cruzain, Z-FR-AMC fluorescence, 0.01% Triton. Potency, µM, for inactives: max response, negative = inhibition, most hits filed as inhibitors;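 also: plate controls were neutral wells for no effect and buffer without enzyme for full effect; nearly all actives have a fitted effect of over 40% in size; top concentration of the series not given in the record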
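Purified cruzain (1.5 nM final) was preincubated with compounds for 15 min at room temperature in 100 mM sodium acetate pH 5.5, 5 mM DTT, 0.01% Triton X-100. Reaction started with 2 uM Z-FR-AMC; AMC fluorescence change over 60 s gave activity.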
RE007 growth inh: less growth of the S. pombe RE007 Vpr strain | S. pombe RE007 Vpr strain, BacTiter-Glo ATP luminescence, 24 h; control for the full effect not named in the record | Potency, µM (series often up to 92.2 µM), for inactives: top-dose activity change, negative = less growth | hit rate 0.21% among 360,000 | AID 651644; active = well fitted falling curve with a large enough effect; inconclusive = small, poorly fitted or top-dose-only effect; inactive = no such curve, though single readings can be large or run the other way;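 also: % is scaled to controls: 0 for no effect and ±100 for the full control effect; nearly all actives have a fitted effect of over 50% in size; the assay follows cell death caused by Vpr and the record does not say whether a fall means rescue or toxicity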
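Fission yeast strain RE007, carrying one chromosomally integrated HIV-1 vpr copy, was seeded at OD 0.01 in PMG+AL medium with 23 nL pinned compound. After 24 h at 30 °C and 99% humidity, viability was read by BacTiter-Glo luminescence.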
NS1 inh: inhibitors of influenza NS1 protein function. S. cerevisiae slowed by influenza A NS1, growth recovery by OD600. Potency, µM (doses to about 46.1 µM), without a hit: top-dose activity, positive = more growth. hit rate 0.4% among 270,000; active means well fitted rising curve with a large enough effect; inconclusive means small, poorly fitted or top-dose-only effect; inactive means no such curve, though single readings can be large or run the other way; also: nearly all actives have a fitted effect of over 50% in size
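Compounds were scored for reversing the slow growth caused by influenza A NS1 in S. cerevisiae, measured by optical density at 600 nm. Assay medium contained 2% galactose at pH 6.0; NS1-free yeast of the same strain were the positive control.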
The depositor's hits bear a star; ? = inconclusive; . = not tested or not shown; & = joins results of further samples; [ ] = remark or other dose. Unless noted, calls follow the shape of the dose curve; as a rule, active = well fitted curve in the direction sought with a large enough effect; inconclusive = small, poorly fitted or top-dose-only effect, or another doubt; inactive = no such curve, though single readings can be large; an effect the other way counts as inactive or inconclusive. Potency is read from the fitted curve at half-maximal effect.

SMILES,SARS PLpro yeast,LASV entry inh,MARV entry inh,StopGo reporter,Cruzain noTriton,Cruzain Triton,RE007 growth inh,NS1 inh
COc1cc(NC(=O)COC(=O)c2ccc(S(=O)(=O)N3CC(C)CC(C)C3)cc2)c(C)cc1[N+](=O)[O-] (configuration not stated),7%,6%,-2%,3%,-15%,-4.5%,22%,-3%
Cc1ccc(=O)n(C(C(=O)NCc2ccco2)C(=O)c2ccc(F)cc2)c1 (configuration not stated),-5%,23%,-3%,-13%,2%,4.3%,6%,3%
O=C(NC1CCCCC1)N1CCN(c2nc(-c3ccccc3)cs2)CC1,0%,-19%,?,?,.,.,1%,3%
O=C(NC(=S)Nc1cc(C(F)(F)F)ccc1N1CCOCC1)c1ccco1,0%,4%[46.1 µM],?,-28%,.,.,4%,3%
O=c1c2ccccc2nc(SCc2ccc([N+](=O)[O-])cc2)n1-c1ccccc1,-4%,-29%,-28%,-11%,?,0.1%,1%,14%
CNC(C)c1cc(OC)ccc1OC (configuration not stated),4%,18%,2%,12%,3%,-2.5%,-7%,-24%
O=C(Nc1ccccc1[N+](=O)[O-])c1cc2ccccc2nc1Cl,1%,.,.,-5%,.,.,-1%,-3%
CC(=O)Nc1cc(C(=O)N2CCCC2)ccc1S(=O)(=O)c1ccc(Cl)cc1,-5%,0%,8%,-9%,7%,-4.2%,-12%,4%
NNC(=O)CN(CCc1ccccc1)S(=O)(=O)c1ccc(Cl)cc1,0%,-10%[46.1 µM],-15%[46.1 µM],4%,.,.,-2%,14%
Cc1cc(C(=O)O)cc(S(=O)(=O)N2CCOCC2)c1C,1%,-2%,26%,18%,4%,12%,39%,-5%
CCCCN1CN(S(=O)(=O)c2ccc(OC)cc2)c2nc3ccccc3nc21,0%,.,.,21%,.,.,-10%,8%
O=C(NCc1ccco1)/C(=C\c1ccc(F)cc1)NC(=O)c1ccco1,4%,27%,?,-8%,.,.,-2%,23%
CCc1ccc2oc(C(=O)Nc3ccccc3OC)cc(=O)c2c1,.,15%[46.1 µM],-23%[46.1 µM],11%,-14%,-2.1%,.,.
COc1ccc(S(=O)(=O)NC(C)C(=O)N2CCCCCC2)cc1 (configuration not stated),6%,15%,?,8%,.,.,-5%,3%
COc1ccccc1N(C)S(=O)(=O)c1ccc(C(=O)Nc2cccc(Br)c2)cc1,-1%,?,?,?,.,.,9%,.
CC(=O)Nc1nc(SCc2ccc(Cl)cc2Cl)n[nH]1,-1%,-1%,-9%,-9%,?,2.4%,2%,-8%
COc1ccccc1N1CCN(C(=O)c2cc3n(n2)C(C(F)(F)F)CC(c2ccco2)N3)CC1 (configuration not stated),0%,0%,-2%&-2%,-15%,?,-4.8%,31%,-47%
O=C(NCCSc1c[nH]c2ccccc12)C1CC1,?,.,.,-16%,-16%,-3.6%,8%,4%
CCOc1ccc(/C=C2\N=C(c3cccs3)OC2=O)cc1OC,26%,-13%,21%,.,?,-21%,.,4%
CC(=O)N1N=C(c2cccnc2)OC1c1ccccc1Cl (configuration not stated),0%,?,-15%,-13%,.,.,-14%,-5%
O=C(c1cccc(COc2cccc3ccccc23)c1)N1CCCC1,3%,8.2µM*,?,14%,?,-4.6%,6%,-21%
Oc1cccc(/C=N/Nc2cc(N3CCCC3)nc(N3CCCC3)n2)c1,-11%,-25%,?,-1%,-26%,-9.6%,1%,1%
CC(C)(C)c1ccc(C(=O)CCCSC2=C(C#N)C(c3ccco3)C3=C(CCCC3=O)N2)cc1 (configuration not stated),11%,?,?,-3%,-3%,-3.5%,5%,?
CCc1cc(=O)oc2c(C)c(OCC(=O)N3CC[C@@]4(O)CCCC[C@H]4C3)ccc12,7%,.,.,-13%,.,.,-10%,2%
O=C(CSc1nnc(-c2ccncc2)o1)Oc1ccccc1,-8%,10%,5%,5%,3%,-8.2%,2%,-45%
CC(C)(C)N1CC2(c3ccccc3)CN(C(C)(C)C)CC(c3ccccc3)(C1)C2=O,-3%,-3%,?,-11%,-1%,3.2%,0%,5%
COc1ccc(C(=O)NCCCN2CCCC2=O)cc1,12%,12%,5%[46.1 µM],34%[activator],-1%,0.8%,5%,4%
CCOc1cc2c(cc1OCC)-n1cccc1C(c1cccc(OCC)c1O)NC2 (configuration not stated),-2%,?,?,-13%,.,.,-17%,1%
Cc1cc(NC(=O)Cc2csc(-c3ccccc3)n2)ccc1Br,0%,3%,-8%,-26%,1%,-6.0%,2%,-3%
O=S(=O)(Nc1ccc(OC(F)(F)F)cc1)c1cccc2nonc12,-2%,14%,9%,-12%,.,.,4%,2%
CCOc1ccc(Oc2ccc(NC(=O)CSc3nncn3C)cc2)cc1,-1%,?,2%,-4%,.,.,-5%,.
O=C(Nc1cccc(NC(=O)c2ccco2)c1)c1cccc(Br)c1,-24%,?,15%[46.1 µM],-13%,.,.,7%,-37%
O=C(O)/C=C/C(=O)Nc1c(F)cccc1F,-1%,.,.,-15%,.,.,10%,1%
N=c1n(CC(=O)O)c2ccccc2n1Cc1ccccc1Cl,-2%,-2%,8%,11%,-5%,1.8%,-10%,-2%
CCOC(=O)C1(Cc2ccccc2)CCN(Cc2ccc(C3CCCCO3)s2)CC1 (configuration not stated),1%,0%,?,?,.,.,-21%,3%
COc1ccc2c(c1)CCCC2NS(=O)(=O)OCC(Cl)(Cl)Cl (configuration not stated),-17%,.,.,-12%,.,.,1%,-75%
C=CCN(c1ccccc1)S(=O)(=O)c1ccc2c(c1)oc(=O)n2C,6%,.,.,0%,0%,2.3%,2%,-3%
CCCC(=O)NC(c1ccc(N(C)C)cc1)c1c(O)ccc2ccccc12 (configuration not stated),1%,3%,?,13%,9%,-7.8%,-6%,1%
CC(=O)Nc1ccc(NC(=O)C(C)OC(=O)C2CC(=O)N(CCc3ccccc3)C2)cc1 (configuration not stated),0%,4%,3%,-15%,.,.,0%,.
CC1(c2ccccc2)NC(=O)N(CC(=O)N(c2ccccc2)C2CCS(=O)(=O)C2)C1=O (configuration not stated),-2%,?,-3%,-10%,.,.,-7%,.
Cc1cccc(C(=O)Nc2c(C(=O)NCc3ccc(Cl)cc3)sc3nc(C)cc(C)c23)c1,.,?,?,4%,15%,-1.4%,.,.
CC(=O)OCc1nc2sc3c(c2c(=O)[nH]1)CCCC3,1%,2%,-19%[46.1 µM],13%,-2%,-3.7%,?,-11%
CCOc1ccc2c(c1)c(C(C)=O)c(C)n2-c1ccccc1,-8%,3%,0%,-20%,-4%,-3.6%,-26%,-45%
CN(C)CCNc1ccc(-c2nn(C)c(=O)c3ccccc23)cc1[N+](=O)[O-],1%,-2%[46.1 µM],?,4%,.,.,1%,0%
CC(=O)Nc1ccc(NC(=O)CS(=O)(=O)c2cn(CC(=O)N3CCC(C)CC3)c3ccccc23)cc1,.,-2%,-3%,-10%,.,.,-12%,.
CC(=O)N1N=C(c2ccc(Br)cc2)CC1c1cn(C)c2ccccc12 (configuration not stated),-41%,?,?,-11%,27%,-4.8%,.,-3%
C=CCn1c(SCc2cc(=O)n3cc(C)ccc3n2)nnc1-c1cccc(C)c1,11µM*,-9%,-19%,?,-1%,-5.0%,-10%,-5%
O=C(COc1ccccc1)Nc1ccc(N2CCN(C(=O)c3ccco3)CC2)cc1,-6%,?,-1%[46.1 µM],-18%,.,.,-14%,.
COc1ccc(C(=O)Nc2cccc3ccccc23)cc1,0%,?,17%[46.1 µM],25%,.,.,-1%,2%
CCc1c(C)sc(NC(=O)Cn2nc(C)c([N+](=O)[O-])c2C)c1C(N)=O,0%,-11%,1%[46.1 µM],-9%,.,.,1%,-9%

Limited to Cruzain noTriton, NS1 inh and SARS PLpro yeast, for two of the compounds above:
SMILES	Cruzain noTriton	NS1 inh	SARS PLpro yeast
CCc1c(C)sc(NC(=O)Cn2nc(C)c([N+](=O)[O-])c2C)c1C(N)=O	.	-9%	0%
Cc1cc(NC(=O)Cc2csc(-c3ccccc3)n2)ccc1Br	1%	-3%	0%

Following part.
SMILES,SARS PLpro yeast,LASV entry inh,MARV entry inh,StopGo reporter,Cruzain noTriton,Cruzain Triton,RE007 growth inh,NS1 inh
COc1ccc(OCc2cc(C(=O)N(C)Cc3nccn3C)no2)c2ccccc12,-2%,3%,8%,25%,.,.,-9%,-19%
COc1ccc(C(=O)Nc2ccc3oc(-c4cc(Cl)ccc4Cl)nc3c2)cc1Br,.,11%[46.1 µM],.,-21%,6%,-0.3%,.,.
CN(CCO)c1cc(N2CCN(C(=O)c3ccco3)CC2)c2nonc2c1[N+](=O)[O-],-1%,1%,?,-23%,-8%,-15%,8%,1%
O=C(C1CCCN(S(=O)(=O)c2ccccc2)C1)N1CCCCC1 (configuration not stated),4%,.,.,-3%,.,.,10%,21%
CCOc1ccc(-c2nnn(CC(=O)NCc3ccco3)n2)cc1,3%,-13%,?,0%,-4%,0.5%,25%,-9%
CCCOC1CCCN(C(=O)c2ccc3oc(C(C)C)nc3c2)C1 (configuration not stated),-4%,16%,-5%,53%[activator],.,.,3%,3%
CCc1nnc(NC(=O)CSc2nnc(COc3cccc(C)c3)o2)s1,1%,10%,?,4%,-12%,1.9%,15%,0%
